eIF4H inh = inhibitors of RNA binding by human eIF4H; inhibition, % at 35 µM; Q15056; 290,000 compounds, 0.94% hits; eIF4H fluorescence polarization binding assay;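 active = 50% or more with normal probe brightness, or confirmed in later tests; inconclusive = above 50% with abnormal brightness, or retests that disagree; inactive = below 50% or failed in later tests; about a fifth of its hits are not listed in these tables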;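 also: calls also rest on retests at 20 µM and on dose response follow-up; 0% = protein and probe with vehicle and 100% = probe without protein; strong numbers were not always called active; many hits fall short of the cut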
PABP polyA inh = blocks human PABP binding to poly(A) RNA; inhibition, % at 35 µM; 290,000 compounds, 1% hits; AID 2014; fluorescence polarization; P11940;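 active = 50% or more with normal probe brightness, or confirmed in later tests; inconclusive = above 50% with abnormal brightness, or retests that disagree; inactive = below 50% or failed in later tests; about a fifth of its hits are not listed in these tables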;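 also: calls also rest on retests at 20 µM and on dose response follow-up; controls were probe without protein and protein plus probe with vehicle; some compounds called inactive have numbers as strong as hits; many hits fall short of the cut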
CSC inhib = cancer stem cell inhibition | 300,000 compounds, 1.1% hits | inhibition, % at 7.5 µM | cancer stem cell-like cells viability, luminescence | AID 2717;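 active = mean at 75% or more and at least half the replicates too; inconclusive = mean and replicates disagree; tested in HMLE shEcad cells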;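 also: 0% = median of negative and 100% = median of positive control wells; the first replicate is given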
MT1-MMP act inh = blocks activation of human MT1-MMP; P50281; HT1080 RFP-PRO-GFP cells, GFP/RFP ratio fluorescence, overnight; percent of plate control window, DMSO zero; GFP/RFP ratio change, % at 20 µM; 360,000 compounds, 0.061% hits; AID 651647;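 active = GFP/RFP ratio change of at least 30% with cell ATP level not reduced by more than half and red fluorescence within 50% of control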; also: strong numbers were not always called active
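Test system: HT1080 cells expressing an RFP-PRO-GFP fluorescent reporter construct / Compound dosing: single-point 20 µM compound, 1% DMSO / Schedule: cells overnight before dosing, compound overnight, 37 °C, 5% CO2 / Evaluation: GFP/RFP fluorescence ratio / Control set: DMSO and RFP-L50D-GFP cell wells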
Env fusion inh = HIV envelope-mediated fusion inhibition | inhibition, % at 12.3 µM | 360,000 compounds, 1.1% hits | HeLa-JRFL Env/CEM21 cell fusion, luciferase;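 active = mean replicate inhibition score of at least 50 and every replicate individually at or above 50; inconclusive = only one of the two criteria met; inactive = mean below 50 and not all replicates reaching 50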;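 also: 0% = plate neutral controls and 100% = maraviroc near 300 nM; one replicate is shown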
Rce1 inhib = inhibitors of yeast Ras-converting enzyme | 290,000 compounds, 0.27% hits | Q03530 | yeast membranes, quenched prenylated peptide cleavage fluorescence | calls only;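 active = fall in fluorescence gain of 50% or more versus controls, with final raw signal at or below 3038400; inconclusive = same 50% fall but final raw signal above 3038400; inactive = fall in fluorescence gain under 50%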;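 also: plate controls were neutral control wells for no effect and wells lacking membranes for full effect; tested at 10 µM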
Target sequence (Q03530 whole entry, looked up): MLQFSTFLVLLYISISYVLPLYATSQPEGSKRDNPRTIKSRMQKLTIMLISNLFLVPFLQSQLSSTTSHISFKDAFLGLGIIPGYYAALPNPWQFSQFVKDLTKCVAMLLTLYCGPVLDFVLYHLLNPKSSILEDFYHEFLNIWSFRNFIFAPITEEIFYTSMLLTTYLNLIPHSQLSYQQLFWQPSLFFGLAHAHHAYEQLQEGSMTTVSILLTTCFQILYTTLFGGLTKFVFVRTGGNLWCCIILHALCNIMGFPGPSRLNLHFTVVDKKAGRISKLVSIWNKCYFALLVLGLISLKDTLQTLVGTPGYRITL
UUG fidelity = modulators of start codon recognition fidelity in yeast; S. cerevisiae UUG-firefly luciferase reporter, luminescence/redox ratio; 350,000 compounds, 0.13% hits; activity score, % at 18.7 µM;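 active = replicate mean at a twofold rise or more, about +100% in these data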;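 also: firefly luciferase made from a UUG start codon reports start codon fidelity; reporter light over untreated wells divided by growth signal over untreated wells; some hits fall short of that in this replicate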
PABP polyA inh retest = recorded beside PABP polyA inh, whose call it bears; inhibition, %; compound at 20 µM; confirmation repeats;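 mean of two retest wells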
MT1-MMP act inh RFP = second read-out of MT1-MMP act inh, no call of its own (marks repeat the call); RFP signal change, %; measured here: RFP expression control read;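 0 = vehicle wells; hits needed this value within 50% of zero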
* hit, by the source's call; i = inactive; ? = inconclusive; · = no result given. Not all compounds are listed; the hit share may differ from the screen's.

SMILES	eIF4H inh	PABP polyA inh	CSC inhib	MT1-MMP act inh	MT1-MMP act inh RFP	Env fusion inh	Rce1 inhib	UUG fidelity	others
CC(C)C(=O)Nc1nnc(S(=O)(=O)N2CCCCCC2)s1	-0.5	-0.1	-7.5	3.2	2.5	-14.9	i	-10.0
C#CCN1C(=O)C(O)(CC(=O)c2ccc3c(c2)OCCO3)c2ccccc21 (centres undefined)	-2.4	4.2	-10.4	-2.8	4.3	-14.4	i	-13.2
O=C(N1CCN(c2ccccc2)CC1)C(F)(F)C(F)F	2.6	14.0	-14.9	-3.0	-2.7	6.7	i	-5.3
OCC(O)/C=N/Nc1nc(Nc2ccccc2)nc(Nc2ccccc2)n1 (centres undefined)	-9.4	-6.5	16.5	0.8	1.2	2.8	i	-23.2
COC(=O)c1sc(N)c(C(=O)OC)c1CSc1nc2sc3c(c2c(=O)n1C)CCC3	2.6	-11.5	34.9	-6.7	-10.8	32.9	·	-7.5
Cc1ccccc1NC(=O)COc1cccc2c1CCNC2=O	·	·	·	6.5	1.8	-4.9	i	-1.2
COc1cc(C2C(C#N)=C(SC)NC3=C2C(=O)CCC3)ccc1O (centres undefined)	-0.6	6.2	-3.8	-11.8	-8.2	34.8	i	5.4
CC(C)n1c(SCc2ccccc2F)nc2c1c(=O)n(C)c(=O)n2C	0.9	-11.0	4.0	-8.4	-13.6	46.8	i	-12.8
CCCCc1nnc(NC(=O)C2CCN(c3ncnc4sc(C)c(C)c34)CC2)s1	·	·	-7.1	-2.0	-0.2	-5.0	i	-12.0
COCCCn1c(=O)c2ccccc2n(Cc2ccccc2C)c1=O	6.4	4.1	-5.1	0.7	0.5	-30.7	i	-1.2
CCN(CC)C(=O)Cn1cc(C(=O)C(=O)NCc2ccco2)c2ccccc21	8.5	-9.3	-8.3	6.5	6.9	-1.1	i	·
Cc1cc(C)c(C)c(S(=O)(=O)N2CCN(C(=O)C3CSC4(C)CCC(=O)N34)CC2)c1C (centres undefined)	·	·	-7.4	3.4	-6.8	·	i	·
CCOC(=O)CNC(=O)CSc1nc2cccnc2n1C	1.9	7.5	11.1	4.0	2.5	·	i	-14.6
CCc1ccc(-c2nn[nH]n2)cc1	-2.3	8.9	-8.4	-3.1	2.2	-24.5	i	-9.0
COc1ccc(CNC(=O)CN2CCN(S(=O)(=O)c3cc(Br)ccc3Br)CC2)cc1OC	·	·	·	-7.7	-3.0	-85.0	·	-16.9

Reprinted at random: 2 compounds from above, in no set order.
SMILES	eIF4H inh	PABP polyA inh	CSC inhib	MT1-MMP act inh	MT1-MMP act inh RFP	Env fusion inh	Rce1 inhib	UUG fidelity	others
CCN(CC)C(=O)Cn1cc(C(=O)C(=O)NCc2ccco2)c2ccccc21	8.5	-9.3	-8.3	6.5	6.9	-1.1	i	·
O=C(N1CCN(c2ccccc2)CC1)C(F)(F)C(F)F	2.6	14.0	-14.9	-3.0	-2.7	6.7	i	-5.3

Other entries follow:
SMILES	eIF4H inh	PABP polyA inh	CSC inhib	MT1-MMP act inh	MT1-MMP act inh RFP	Env fusion inh	Rce1 inhib	UUG fidelity	others
COc1ccc(OC)c2[nH]c(=O)c(CCNC(=O)c3ccc(Br)o3)cc12	4.1	-1.2	-3.7	-1.3	-0.5	·	i	-24.2
O=C(c1ccc(SCc2ccco2)c([N+](=O)[O-])c1)N1CCOCC1	-2.3	0.5	-15.9	6.0	1.0	-2.8	i	·
NNC(=O)c1nn(-c2ccc(Cl)cc2)ccc1=O	18.6	-7.3	-0.7	7.8	3.6	10.9	i	-21.2
Cc1cc(C)c(OCCCCCn2ccnc2)c(C)c1	4.1	1.2	16.2	2.0	-5.9	10.2	i	-12.4
O=C1NC2(CCCCC2)C(=O)N1CC(=O)N(Cc1ccccc1)c1ccccc1	-16.3	-3.2	-23.0	0.1	-2.0	1.5	i	-12.0
CCOc1ccc(-n2c(=S)sc3c(=O)[nH]c(SCC(=O)NC(C)CC)nc32)cc1 (centres undefined)	-2.0	-19.3	·	4.0	4.4	-43.2	i	·
Cc1nn(Cc2ccccc2)c(Cl)c1C(=O)NCc1ccc(C)n1C	8.3	8.1	-11.8	-18.8	-0.2	-5.1	i	-0.7
O=C1N=C2SCCN2/C1=C\c1ccc(Cl)cc1	1.0	6.1	-6.0	3.3	1.6	·	i	-23.0
CCOc1ccc(CN2CCNC(=O)C2CC(=O)NCCCn2ccnc2)cc1 (centres undefined)	-1.9	1.0	-5.7	0.2	1.8	-13.2	i	·
Cn1c(C(=O)O)cc2c(=O)n3ccccc3nc21	2.5	3.5	-2.4	-2.9	1.1	-10.5	?	·
O=C(CNC(=O)c1ccc(Cl)cc1)NCCCn1ccnc1	7.4	-0.6	·	-5.0	1.5	-251.1	·	-15.3
COC(=O)/C(=C\c1cccnc1)NC(=O)c1ccc(OCc2ccccc2)cc1	-15.7	2.9	9.4	2.6	-4.5	7.9	i	-20.3
c1ccc(-c2nnc(-c3ccco3)n2-c2ccccc2)cc1	-1.4	-4.8	0.5	-1.2	2.1	-43.2	i	-11.6
COc1ccc(CCN(C(=O)c2ccc(F)cc2)C2=CC3CCC(C2)N3C)cc1OC (centres undefined)	-2.4	11.1	-7.4	-2.2	3.0	·	i	·
Cc1ccc(NC(=O)C2CC2C)c(Cl)c1 (centres undefined)	8.4	4.8	-1.1	1.6	4.1	-0.8	i	·
CCCOc1ccc(C(=O)Nc2ccc(S(=O)(=O)NC3=NCCCCC3)cc2)cc1	·	·	·	-11.0	-23.1	8.0	i	2.0
CC(Sc1nncn1C)C(=O)Nc1ccc(N2CCCCC2)cc1 (centres undefined)	·	·	18.7	-0.9	1.2	·	·	1.0
O=C(CCC1CCCC1)Nc1cc(Cl)ccc1N1CCOCC1	·	·	·	-4.3	-1.4	-0.1	·	3.2
N=C1/C(=C\c2ccc(OC(=O)c3ccco3)cc2)C(=O)N=C2SC(N3CCCCC3)=NN12	12.7	17.4	2.1	-2.5	1.5	-2.0	i	-15.7
CSCCC(NS(=O)(=O)c1ccc(Cl)cc1)C(=O)OCC(=O)NC12CC3CC(CC(C3)C1)C2 (centres undefined)	-9.2	-3.7	-10.1	-6.6	-6.2	0.9	i	-9.8
O=C(CNc1ccc2ccccc2c1)N/N=C/C=C/c1cccc([N+](=O)[O-])c1	31.5	-2.9	28.1	-6.7	5.7	0.2	i	·
CSCc1cc(N2CCOCC2)nc(-c2ccccc2)n1	-3.0	-0.8	-2.4	-0.1	1.8	29.8	i	-3.9
Cc1ccoc1C(=O)NCCCNC(=O)c1occc1C	5.9	17.3	-7.6	0.3	6.0	-419.8	i	-7.4
CCOc1ccc(S(=O)(=O)NCc2ccncc2)cc1NC(=O)c1ccccc1F	-0.3	7.4	8.3	3.4	-18.3	22.3	i	-13.1
Nc1c(-c2ccccc2)c(CN2CCOCC2)nn1-c1cccc([N+](=O)[O-])c1	-6.7	-11.6	-10.2	-3.8	3.1	3.4	i	·
COc1cccc(CC(=O)NN2C(=O)NC3(CCCCC3)C2=O)c1	·	·	-10.6	-2.2	1.7	·	·	12.5
O=C(CCCSc1nc2sc3c(c2c(=O)[nH]1)CCC3)NCCCO	0.3	3.7	-12.8	2.4	0.2	·	i	-18.5
CCc1nnc(NC(=O)C2CC(=O)N(Cc3ccco3)C2)s1 (centres undefined)	-7.3	-11.9	-2.7	2.3	1.3	-2.1	i	-2.9
COC(=O)Cn1c(=NC(=O)CCS(=O)(=O)c2ccccc2)sc2c(OC)ccc(OC)c21	-18.3	-0.9	3.6	-2.9	0.9	·	i	-4.7
O=C(CCNS(=O)(=O)c1ccccc1)NNC(=O)C1COc2ccccc2O1 (centres undefined)	·	·	-19.1	5.4	3.6	-9.9	i	-14.3
CCSc1nc2ccccc2n1CCOc1ccccc1	-12.9	23.7	-3.3	-3.2	-3.0	·	i	-22.6
O=C(CSc1nnc(-c2ccccc2F)n1CCc1ccccc1)Nc1ccc2[nH]c(=O)[nH]c2c1	2.1	-20.1	-9.2	-2.8	-2.3	18.3	i	·
COc1ccc(OC)c(-c2cc(C3CCN(c4cc(Cl)nc(N)n4)CC3)[nH]n2)c1	-6.8	-3.7	31.7	-5.0	-16.3	63.2*	i	20.1
NC(=O)c1ccsc1NC(=O)COC(=O)CCCOc1ccccc1	·	·	·	3.4	2.0	6.9	·	18.4
CC1=NN2C(=N)/C(=C\c3ccc(SCc4ccccc4)o3)C(=O)N=C2S1	?	121.0*	-2.5	-11.7	8.9	-12.1	i	-14.2	PABP polyA inh retest=103.6*
COc1ccc(C(=O)Nc2ccc(S(=O)(=O)N3CCCC3)cc2)c(OC)c1	1.9	3.9	-17.2	1.0	-1.5	2.7	i	-7.9
O=C1CC(N2CCC(O)(c3ccc(Cl)cc3)CC2)C(=O)N1 (centres undefined)	3.0	0.3	-6.6	2.3	6.4	·	i	-3.5
CCOC(=O)c1cn(CC(=O)Nc2cccc(Cl)c2C)nn1	-3.2	-4.2	-5.0	3.2	5.0	-13.1	i	-4.9
CCCc1nc2ccc(C)cn2c1Cc1ccc(OC)cc1C	·	·	·	-1.7	6.5	-0.8	·	3.8
COC(=O)c1ccc2c(=O)n(CC3CCCO3)c(SCC(=O)Nc3ccc(OC)cc3OC)nc2c1 (centres undefined)	0.3	5.6	-6.1	2.5	1.2	15.2	i	·
Cc1cc(F)cc(-c2cc(C(=O)NCc3ccco3)[nH]n2)c1	·	·	·	-0.5	3.0	-24.5	·	-27.8
COC(=O)c1cccnc1-n1c(=O)c2cccnc2n(Cc2cccc(C(F)(F)F)c2)c1=O	-5.4	-6.3	-13.7	-0.3	-0.7	32.8	i	·
CCOc1ccccc1C1C2C(=O)N(c3ccccc3)C(=O)C2ON1c1ccccc1 (centres undefined)	-7.1	-4.3	-0.1	-0.9	1.0	14.5	i	-13.1
c1ccc(Cc2nnc3sc(-c4cccs4)nn23)cc1	1.7	2.9	8.2	3.1	1.9	-36.1	i	-15.4
O=C(C1=C[C@@H](c2ccc(C(F)(F)F)cc2)C[C@@H](OCc2ccc(CO)cc2)O1)N1CCOCC1	6.1	-2.7	-25.5	-1.4	-1.7	15.4	i	12.6
Cc1ccc(S(=O)(=O)N2CCN(C(=O)c3cc(S(=O)(=O)N(C)C)ccc3N3CCCC3)CC2)c(C)c1	·	·	·	-7.8	-3.3	0.0	·	-3.5
Cc1noc(C)c1S(=O)(=O)N(CC(=O)NC(C)c1ccccc1)c1ccc(C(C)C)cc1 (centres undefined)	-6.8	-2.2	-1.3	-0.8	-1.7	13.7	i	-7.2
C[C@H](O)[C@@H]1C(=O)N2CCc3ccc(-c4cccc(F)c4)cc3[C@@H]2C[C@@H]1N(C)C(=O)Nc1ccccc1	·	·	·	2.9	3.6	-5.8	·	-29.0
COc1cccc(/C=N/n2cnc3cc(C)c(C)cc32)c1OC	-9.7	5.4	3.5	0.2	-0.3	11.4	i	-16.0
CC12CCC(C(=O)Nc3cc(Cl)ccc3Cl)(C/C1=N\O)C2(C)C (centres undefined)	0.8	-7.8	0.1	-8.8	-0.8	-87.4	i	-6.0
Cc1csc(NC(=O)C2CCCC2)n1	-8.8	6.0	10.8	-3.9	3.9	·	i	-16.7
Brc1ccc2c(c1)-c1ccccc1C1=NCCN12	·	·	·	6.4	0.7	-374.0	·	-41.9
O=C(O)/C=C/c1ccccc1Oc1ccc(Cl)cc1Cl	-0.1	-0.4	11.1	11.1	5.7	2.6	i	4.3
O=C(Cc1coc2ccc3ccccc3c12)NCc1cccs1	-2.2	-2.8	-0.8	-7.3	-6.3	·	i	·
